Ecoli growth = inhibitors of Escherichia coli growth; 0.21% of 330,000 active; OD600 absorbance (concentration not given with the values); OD600, 23 h; active compounds read low; AID 1053175;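 active = OD600 absorbance below the run mean of sample wells minus 3.6 SD, in any replicate, cut at about 0.56 in these data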;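 also: stock transfer was 300 nL into about 60 µL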
UCH37 DUB inh = blocks the human deubiquitinase UCH37 | purified proteasome/UCH37, Ub-AMC cleavage fluorescence | inhibition, % (test concentration not listed) | Q9Y5K5 | 0.33% of 330,000 active;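 active = mean of two replicates above 20%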;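 also: 0% = compound-free wells with enzyme and 100% = wells lacking proteasome; stock transfer was 100 nL into about 20 µL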
Target sequence (Q9Y5K5 whole entry, looked up): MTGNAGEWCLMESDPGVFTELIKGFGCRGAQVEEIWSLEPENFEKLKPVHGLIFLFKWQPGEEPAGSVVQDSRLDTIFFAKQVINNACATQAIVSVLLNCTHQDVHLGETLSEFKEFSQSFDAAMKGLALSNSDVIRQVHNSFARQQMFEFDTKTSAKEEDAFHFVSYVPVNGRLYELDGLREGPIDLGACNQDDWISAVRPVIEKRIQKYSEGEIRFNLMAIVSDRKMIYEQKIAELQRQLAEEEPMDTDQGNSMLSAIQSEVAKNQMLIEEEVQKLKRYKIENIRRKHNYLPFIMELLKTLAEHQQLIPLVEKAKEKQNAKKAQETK
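Material: Human UCH37 enzyme supplied as purified proteasome complex | Schedule: 30 min compound-proteasome preincubation then 25 min substrate reaction, room temperature | Detection: AMC fluorescence from Ub-AMC cleavage, excitation 355 nm, emission 460 nm | Benchmarks: Wells without proteasome as full block, compound-free enzyme plus substrate as uninhibited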
ALR inh = blocks human ALR sulfhydryl oxidase activity; P55789; purified ALR, DTT oxidation, H2O2 HRP-luminol luminescence; inhibition, % (concentration not given with the values); 3.8% of 290,000 active; AID 485317;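 active = mean and each replicate at 75% or more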;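 also: stock transfer was 7.5 nL into about 7.5 µL; 0% = neutral wells and 100% = wells with inactivated enzyme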
Target sequence (P55789 whole entry, looked up): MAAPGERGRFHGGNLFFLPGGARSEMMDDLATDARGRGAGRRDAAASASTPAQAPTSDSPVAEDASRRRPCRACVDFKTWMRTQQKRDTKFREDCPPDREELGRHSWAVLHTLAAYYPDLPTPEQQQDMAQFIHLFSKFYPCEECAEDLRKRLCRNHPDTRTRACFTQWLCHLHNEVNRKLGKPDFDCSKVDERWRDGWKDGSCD
Ecoli rRNA inh = selective bacterial rRNA inhibition in E. coli | AID 720706 | GFP signal change (wild-type ribosome), % (no concentration beside the values) | 1.6% of 350,000 active | E. coli WT GFP vs humanized-ribosome RFP mutants, fluorescence, 24 h; active compounds read low; DMSO median 0, no signal -100;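 active = significant combined selectivity score with lowered wild-type GFP, culture density cut under 30%, mutant RFP and density less affected; inactive = any of these conditions unmet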; also: one replicate is shown; some compounds called inactive have numbers as strong as hits
FGF22 binding = FGF22 (human) thermal shift binding. AID 651658. recombinant FGF22 thermal shift, SYPRO orange fluorescence; percent of sucrose octasulfate shift, DMSO zero. calls only at 9.99 µM. 1.5% of 340,000 active;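 active = melting point raised past a set limit in the mean and every replicate; three in four hits are not shown here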
HNF4A DNA FP = change in binding of human HNF4 alpha to DNA; P41235; HNF4a-FITC DNA binding, fluorescence polarization, 1 h; activity change, % at 10 µM; 0.3% of 360,000 active; AID 1224865; in the data active = activity change above about 30%, passing the limit was not always enough;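 also: controls were the assay level and a saturating level of protein; the project sought stronger binding though the title names inhibitors; some compounds called inactive have numbers as strong as hits; positive values seem to mean higher polarization but the record does not say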
Beta2AR agonist = human beta-2 adrenergic receptor agonism by FAP; P07550; Am2.2-beta2AR cells, FAP receptor internalization, flow cytometry; reference of the scale not given here; 0.43% of 340,000 active; AID 504454; response, % (test concentration not listed);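 active = response above a set limit, near 3 SD of response in nonfluorescent compounds, cut at about 42% in these data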;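 also: stock transfer was 100 nL into about 11 µL; a reference agonist was the positive control; negative values mostly stem from fluorescent compounds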
Target sequence (P07550 whole entry, looked up): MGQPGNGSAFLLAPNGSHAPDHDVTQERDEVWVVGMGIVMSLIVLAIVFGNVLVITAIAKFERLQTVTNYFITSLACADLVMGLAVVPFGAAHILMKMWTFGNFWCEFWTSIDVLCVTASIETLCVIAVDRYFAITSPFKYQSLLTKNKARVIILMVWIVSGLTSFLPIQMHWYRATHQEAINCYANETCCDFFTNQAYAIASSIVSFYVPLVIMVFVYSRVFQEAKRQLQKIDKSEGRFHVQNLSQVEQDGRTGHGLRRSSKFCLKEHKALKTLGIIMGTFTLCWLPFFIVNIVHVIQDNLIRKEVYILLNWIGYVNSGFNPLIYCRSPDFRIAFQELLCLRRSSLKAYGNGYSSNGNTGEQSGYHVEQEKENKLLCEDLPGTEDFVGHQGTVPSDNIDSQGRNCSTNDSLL
Ecoli rRNA inh OD600 = also measured in Ecoli rRNA inh; calls as there; OD600 change, %; measured here: OD600 growth;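 optical density of the mix in the first replicate; 0 = DMSO median and -100 = no signal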
Ecoli rRNA inh RFP = further read-out of Ecoli rRNA inh, marked with its call; RFP signal change, %; measured here: RFP humanized mutant strains;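 first replicate; 0 = DMSO median and -100 = no signal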
Starred values were filed as active, the others as inactive; i = inactive; . = not tested or not shown.

SMILES	Ecoli growth	UCH37 DUB inh	ALR inh	Ecoli rRNA inh	Ecoli rRNA inh OD600	Ecoli rRNA inh RFP	FGF22 binding	HNF4A DNA FP	Beta2AR agonist
COC(=O)CCN(C(=O)c1ccc(Cl)c([N+](=O)[O-])c1)c1ccccn1	0.652	5.7	-38.9	7.7	12.6	0.5	i	5.5	8.2
CCn1c(=S)sc2c(=O)n(-c3ccccc3)c(SCC(=O)NCc3ccco3)nc21	0.684	8.5	39.7	.	.	.	.	-5.2	3.2
CCC1CCCCN1C(=O)CSc1nc(N)cc(N)n1 (stereo unspecified)	0.626	-1.4	-3.6	12.2	19.7	5.1	i	-1.7	1.0
CCN(CC)S(=O)(=O)c1cc(NC(=O)c2ccc3c(c2)NC(=O)C(C)S3)ccc1C (stereo unspecified)	0.692	0.0	-3.8	6.1	6.1	5.0	i	-2.2	12.4
Oc1ccccc1N1CCN(CC(O)COCc2ccccc2Cl)CC1 (stereo unspecified)	0.638	5.0	99.0*	-2.3	-2.1	3.2	i	1.2	-3.5
O=C(CCc1nc2ccccc2s1)OCc1ccccc1	0.663	3.8	-0.7	.	.	.	.	-1.8	4.4
O=C(NCc1ccccc1)c1ncn(Cc2ccccc2)c1C(=O)NCc1ccccc1	0.662	2.2	3.4	-11.7	-5.6	-3.6	i	-6.0	2.5
COc1ccc(N2CCN(c3nc4ccccc4nc3NS(=O)(=O)c3ccccc3)CC2)cc1	0.799	6.8	2.4	.	.	.	.	-2.4	10.0
CCN(CC)C(=O)C1=C(C)N(Cc2ccc(F)cc2)C(=O)C(CC(=O)NCC2CCCCC2)C1 (stereo unspecified)	.	.	.	1.7	-2.5	-0.8	i	-0.4	.
CC1(C(=O)NS(=O)(=O)c2cccc(F)c2)CCN1C(=O)c1ccccc1CCc1ccccc1 (stereo unspecified)	.	.	.	-1.5	-11.6	1.7	i	-1.5	.
Cc1ccc(NC(=O)CCOc2ccccc2C)cc1F	0.652	1.6	-20.6	-56.2	-81.5	-25.5	i	-1.3	-20.8
Cn1c(/C=C/c2cccc([N+](=O)[O-])c2)nc2ccccc2c1=O	0.632	4.7	14.8	22.6	24.3	5.0	i	-1.2	-17.0
CCCCCCC(=O)Nc1ccc(C(=O)N/N=C/c2cccnc2)cc1	.	.	0.1	.	.	.	.	5.2	-13.8
O=C(CCN1CCN(c2ccccc2)CC1)Nc1ccccc1F	0.732	4.4	.	.	.	.	.	3.2	-0.7
CCCOC(=O)C1C2C=CC(C2)C1C(=O)OCC(=O)c1ccccc1 (stereo unspecified)	0.695	2.1	-1.4	.	.	.	.	-2.8	-2.7
O=C(COC(=O)c1ccccc1O)NCc1ccccc1Cl	0.683	-2.8	.	8.8	18.1	0.6	i	-1.0	-2.3
O=c1c2ccccc2cnn1Cc1cccc(Br)c1	0.742	3.4	2.9	-12.0	-10.3	-2.0	i	-2.4	-15.6
Cc1cc(Nc2nc3ccccc3nc2Cl)n(-c2ccccc2C)n1	0.66	-2.8	10.3	.	.	.	.	-1.0	6.5
COC(=O)[C@@]12C[C@@H](CC(=O)NCCCN3CCCC3=O)C(=O)N(Cc3ccccc3)C1=CCC(C)(C)C2	.	.	.	7.9	8.8	3.6	i	-2.4	.
CCN(CC)CCCNC(=O)C1c2ccccc2C(=O)N(C)C1c1ccc(OC)cc1 (stereo unspecified)	0.758	0.8	-2.1	.	.	.	.	4.6	2.8
CCn1c(SC(C)C(=O)O)nnc1-c1cccnc1 (stereo unspecified)	0.73	2.2	-6.3	.	.	.	.	1.6	-7.2
CCOC(=O)c1csc(NC(=O)c2ccc3c(c2)OCCO3)n1	.	.	14.7	.	.	.	.	0.0	9.0
CC1(C)Cc2c(cnn2-c2ccc(F)cc2)C(NC(=O)C2=NNC(=O)CC2)C1 (stereo unspecified)	0.686	2.1	-1.6	-1.8	-5.7	-3.7	i	4.1	0.3
Cc1cc(C)c(C(=O)OCC(=O)NC(=O)c2ccccc2)c(C)c1	0.663	-0.5	.	-1.4	-0.2	1.5	i	0.2	-13.9
CCOCCCNC(=O)c1cn2c3c(ccc(Cl)c3c1=O)OC(C)C2 (stereo unspecified)	0.667	-266.5	.	10.7	15.7	1.0	i	-2.2	2.4
Cc1nc2ncnn2c(C)c1CCC(=O)N1CCCCC1	0.695	1.4	.	.	.	.	.	-0.9	-0.5
O=C(c1cccs1)N1CC=C(c2ccccc2)CC1	.	.	-4.4	-8.4	-7.7	0.2	i	-2.1	-96.0
Cc1ccccc1S(=O)Cc1ccc(C(=O)NC2CCN(Cc3ccccc3)CC2)o1 (stereo unspecified)	0.67	-0.6	-7.1	4.9	-0.6	-0.5	i	0.5	-1.5
Cc1cc(Cl)ccc1-n1c(-c2cccnc2)n[nH]c1=S	0.618	3.5	65.7	.	.	.	i	-1.6	6.9
COCCN1C[C@@H](CO)O[C@@H](n2cnc3c(NCc4ccc(F)cc4)ncnc32)C1	.	.	.	-6.8	-5.2	-3.7	i	0.4	.
COc1cccc(CNC2CCCc3ccccc32)c1OC (stereo unspecified)	0.616	-0.4	-1.4	13.4	6.3	1.8	i	3.0	-4.5
O=C(COc1ccc(Cl)cc1)NCCCn1ccnc1	0.736	-0.1	-6.6	.	.	.	.	1.0	-2.5
CCc1[nH]nc2c1C(c1ccsc1)C(C#N)=C(N)O2 (stereo unspecified)	0.743	-0.1	27.4	.	.	.	.	0.7	-3.0
N#Cc1ccc(S(=O)(=O)N2CCN(CN3C(=O)CC4(CCCC4)C3=O)CC2)cc1	.	.	.	12.9	11.3	0.1	i	2.2	.
Cc1cc([N+](=O)[O-])nn1CC(=O)N1N=C(C(F)F)CC1(O)C(F)F (stereo unspecified)	0.697	0.3	.	9.0	5.8	2.5	i	-1.1	-0.3
COc1cccc(-c2sc3ccccc3c2-c2ccc(OCCN(C)C)cc2)c1	.	.	-11.0	-54.3	-81.7	-21.6	i	3.2	64.8*
CCCCN1C(C(=O)Nc2ncccn2)=C(O)c2ccccc2S1(=O)=O	0.642	9.3	18.7	3.0	7.1	-2.7	i	2.4	-1.2
Cc1ccc(CN(c2ccc(C(=O)NCc3ccc4c(c3)OCO4)cc2)S(C)(=O)=O)cc1	0.729	3.3	-6.4	.	.	.	.	1.0	-0.2
COc1ccc(CNC(=O)COC(=O)/C=C/c2cccc(Br)c2)cc1	0.691	0.7	1.7	-11.8	3.7	0.0	i	-0.2	-3.4
C=C(C)CN(CC)c1nc(N)c2c(N)nc3c(c2c1C#N)CC(=O)N3C12CC3CC(CC(C3)C1)C2	0.692	-65.6	-3.4	.	.	.	.	6.8	8.2
COCC(=O)OCC(=O)Nc1ccccc1-c1ccccc1	0.637	4.1	-3.1	9.5	6.8	-0.4	i	1.1	-7.3
Cc1ccnc(NS(=O)(=O)c2ccc(NC(=O)c3ccc(Cl)cc3[N+](=O)[O-])cc2)n1	0.665	4.7	-16.0	-0.6	-6.7	-1.7	i	1.8	3.5
CCOc1ccccc1-n1c(CNc2ccc(F)cc2)nnc1SCC(=O)NCc1ccco1	0.648	4.9	2.7	.	.	.	.	-4.5	-5.1
CC1(C)CC(=O)C2=C(C1)Nc1ccccc1NC2c1cccc(F)c1 (stereo unspecified)	0.637	12.3	99.1*	9.7	10.7	1.5	i	4.7	-2.5
CCN(C(=O)COC(=O)COc1ccccc1Cl)c1c(N)n(Cc2ccccc2)c(=O)[nH]c1=O	0.694	2.7	-7.8	-2.6	0.3	-2.3	i	-2.7	0.7
O=C(CSc1nc(O)cc(=O)n1-c1ccccc1)NCc1ccccc1	0.671	0.8	3.7	.	.	.	.	1.4	-5.3
CC(=O)Nc1ccc(NC(=O)COC(=O)c2cc(S(=O)(=O)N(C)C)ccc2N2CCCC2)cc1	0.66	4.0	-11.7	-10.7	-10.1	0.1	i	5.5	1.1
COCC(C)NC(=O)C1CC(c2cccc(Br)c2)=NO1 (stereo unspecified)	0.699	3.4	-7.8	.	.	.	.	2.1	0.6
COc1ccc(C(=O)N2CCCC(CCC(=O)NCc3ccccc3F)C2)c(OC)n1 (stereo unspecified)	0.686	2.5	-3.7	-7.6	-0.5	-1.9	i	2.7	1.3
O=C(NCc1nnnn1-c1ccccc1)c1ccc2ccccc2c1	.	.	.	-13.0	-11.8	3.0	i	3.2	.
COc1ccc(N2CCN(C(CNC(=O)C(=O)NCC(OC)OC)c3ccco3)CC2)cc1 (stereo unspecified)	0.691	0.7	50.2	5.9	3.0	0.1	i	-1.3	-3.2
Cc1c(NS(=O)(=O)c2cc(C(=O)NCc3cccc(Cl)c3)ccc2Cl)c(=O)n(-c2ccccc2)n1C	0.708	2.2	.	-9.5	-24.3	-4.5	i	2.9	-3.2
Cc1ccc(S(=O)(=O)N2CCN(C(=O)c3ccc4c(c3)OCO4)CC2)cc1	0.641	4.9	4.3	1.7	-0.7	0.3	i	-2.3	-1.0
CCOc1ccccc1NC(=O)C1CCCC1	.	.	.	6.7	13.6	2.8	i	-3.9	-0.1
Cc1cc(C(=O)Nc2cccc3ccccc23)oc1C	.	.	.	-6.9	-7.7	4.7	i	-2.3	.
COc1cc2c(cc1OC)C(c1ccccc1Cl)N(C)CC2 (stereo unspecified)	0.673	0.0	.	1.7	4.5	0.3	i	1.3	0.7
CC1CCc2c(C(=O)Nc3ccccn3)csc2C1 (stereo unspecified)	0.627	0.0	3.6	-27.7	-37.5	-12.9	i	4.9	-17.6
Cn1c(-c2ccccc2)cnc1SCc1nc2ccccc2c(=O)[nH]1	0.626	0.5	14.5	.	.	.	.	-0.2	-0.7
COc1ccccc1N1CCN(C(=O)CCNC(=O)c2ccco2)CC1	0.683	-0.2	16.6	6.3	8.4	-1.3	i	4.8	2.8
COc1ccc(CNC(=O)Cc2cccs2)cc1OC	0.707	5.2	-11.9	1.7	-1.3	-3.2	i	0.0	3.4

7 compounds out of the list above, sorted by their value in Ecoli rRNA inh, rising.
SMILES	Ecoli growth	UCH37 DUB inh	ALR inh	Ecoli rRNA inh	Ecoli rRNA inh OD600	Ecoli rRNA inh RFP	FGF22 binding	HNF4A DNA FP	Beta2AR agonist
CC1CCc2c(C(=O)Nc3ccccn3)csc2C1 (stereo unspecified)	0.627	0.0	3.6	-27.7	-37.5	-12.9	i	4.9	-17.6
CC(=O)Nc1ccc(NC(=O)COC(=O)c2cc(S(=O)(=O)N(C)C)ccc2N2CCCC2)cc1	0.66	4.0	-11.7	-10.7	-10.1	0.1	i	5.5	1.1
Cc1c(NS(=O)(=O)c2cc(C(=O)NCc3cccc(Cl)c3)ccc2Cl)c(=O)n(-c2ccccc2)n1C	0.708	2.2	.	-9.5	-24.3	-4.5	i	2.9	-3.2
COc1ccc(C(=O)N2CCCC(CCC(=O)NCc3ccccc3F)C2)c(OC)n1 (stereo unspecified)	0.686	2.5	-3.7	-7.6	-0.5	-1.9	i	2.7	1.3
COc1cc2c(cc1OC)C(c1ccccc1Cl)N(C)CC2 (stereo unspecified)	0.673	0.0	.	1.7	4.5	0.3	i	1.3	0.7
COc1ccc(N2CCN(C(CNC(=O)C(=O)NCC(OC)OC)c3ccco3)CC2)cc1 (stereo unspecified)	0.691	0.7	50.2	5.9	3.0	0.1	i	-1.3	-3.2
COCC(=O)OCC(=O)Nc1ccccc1-c1ccccc1	0.637	4.1	-3.1	9.5	6.8	-0.4	i	1.1	-7.3

Screens deposited in PubChem BioAssay by several laboratories.

Some of the compounds tested, so the mix of outcomes need not match the whole.
